Vaccinia Venus = vaccinia inhibition (Venus reporter); Vaccinia virus Venus reporter expression, fluorescence; AID 720580; 0.46% of 330,000 active; Potency, µM (top dose mostly 36.5 µM), for inactives: at the highest dose activity change, negative = inhibition, hits mostly inhibitors; active means well fitted inhibition curve with a large enough effect; inconclusive means small, poorly fitted or top-dose-only effect; inactive means no such curve, though single readings can be large or run the other way; tested in A549 cells; further: nearly all actives have a fitted effect of over 30% in size; inactives centre near -10
Vaccinia mCherry = vaccinia inhibition (mCherry reporter); Vaccinia virus mCherry reporter infection, fluorescence; about a quarter of the inactives have no number; Potency, µM (series often up to 36.5 µM), inactives show top-dose activity change, negative = inhibition, hits mostly inhibitors; 0.63% of 310,000 active; AID 720579; active = well fitted inhibition curve with a large enough effect; inconclusive = small, poorly fitted or top-dose-only effect; inactive = no such curve, though single readings can be large or run the other way; tested in A549 cells; further: nearly all actives have a fitted effect of over 35% in size; inactives centre near -10
* hit, by the source's call; i = inactive; ? = inconclusive; / = not tested or not shown; [ ] = another dose, or the depositor's remark. On the % scale 0 is the no-effect control and ±100 the full control effect; potency means the concentration at half of the fitted maximal effect.

Results follow in this order: Vaccinia Venus	Vaccinia mCherry
> COc1ccc(OC)c(-n2c(=S)[nH]c3c(sc(=S)n3-c3ccccc3)c2=O)c1
  -10%	-10%
> O=C(COC(=O)c1ccc(N2CCCC2=O)cc1)c1ccccc1
  -14%	-9%
> Cc1cccc(Cn2nnc3ccccc32)c1O
  -15%	?
> Cc1cc(C)c2oc(-c3cccc(NC(=O)COc4ccc([N+](=O)[O-])cc4)c3)nc2c1
  -10%[7.34 µM]	-6%[7.34 µM]
> COc1cc(NC(=O)C2CC(=O)N(CCc3ccc(F)cc3)C2)cc(OC)c1OC (stereo unspecified)
  4%	-4%
> COc1ccccc1NC(=O)c1c(C)cc(C)nc1SCC(=O)Nc1cccc(C)c1
  -18%	-17%
> Cc1cc(C(=O)COC(=O)C2=NNC(=O)CC2)c(C)n1-c1ccc(OC(F)F)cc1
  -6%	/
> O=C(c1cc2cc(Cl)ccc2oc1=O)N1CCCC1
  6%	-9%
> FC(F)(F)c1ccc(C2[C@H]3CN(Cc4ccc(-c5ccccc5)cc4)[C@H](c4ccccc4)C34CC2(c2cccnc2)C4)cc1 (stereo partly specified)
  -8%	?
> COCCCn1c(SCc2cccc(Cl)c2)nc2c(sc3ccccc32)c1=O
  -5%	-6%
> O=C(Cc1ccsc1)Nc1ccc(Cl)cc1Cl
  ?	-27%
> CCC(c1nnnn1-c1ccc2c(c1)OCCO2)N1CCN(CCN2CCOCC2)CC1 (stereo unspecified)
  -4%	11%
> CCn1nc(C)c([N+](=O)[O-])c1C(=O)NNC(=O)c1ccc(Cl)cc1
  -14%	-2%
> NC(=O)c1c(NC(=O)CSc2nnc(Cc3ccccc3)n2Cc2ccco2)sc2c1CCC2
  -19%	?
> COc1cc2[nH]c(=O)n(CCCC(=O)N3CC=C(c4ccccc4)CC3)c(=O)c2cc1OC
  -5%	-17%
> CCn1c(SCC(=O)Nc2ccc3c(c2)n(C)c(=O)n3C)nnc1-c1ccncc1
  -4%	-7%
> Oc1ccc(C[C@@H]2CNCCN2CC2(c3ccccc3)CC2)cc1
  -26%	-25%
> COC(=O)/C(=C\c1c[nH]c2ccccc12)NC(C)=O
  3%	-2%
> CC(=O)NC(CCS(C)(=O)=O)C(=O)Nc1c(F)cccc1F (stereo unspecified)
  0%	-7%
> CCCc1cc(NCCCO)n2c(nc3ccccc32)c1C#N
  11%[7.34 µM]	19%[7.34 µM]
> Cc1c(-c2ccccc2)nc(-c2ccccc2)[nH]c1=O
  -8%	-3%
> Cc1ccc(C)c2c(C)ccnc12
  -8%	-11%
> Cc1nn2c(C)c(C(=O)NCCc3ccccc3)cnc2c1-c1ccccc1
  3%	1%
> Cc1cc(C(=O)OCC(=O)N2c3ccccc3CC2C)c(C)o1 (stereo unspecified)
  -16%	/
> COCN(C#N)c1nc(N(C)C)nc(N(C)C)n1
  -4%	-7%
> CC(C)(C)C(=O)COC(=O)c1ccc2c(c1)C(=O)N(Cc1ccco1)C2=O
  -3%	i
> COC(=O)CNc1nc(Cl)nc(Nc2ccc(C)cc2)n1
  -17%	i
> COc1cccc(-c2nc(S(=O)(=O)c3ccccc3)c(N3CCC(C)CC3)o2)c1
  -3%	-19%
> CN(C)CCCNC(=O)C[C@H]1C[C@H](C(=O)N2CCCCC2)[C@@]2(C)c3[nH]c4ccc(Cl)cc4c3CCN2C1=O
  -7%	-4%
> Cc1cccc(OCCOC(=O)CN2C(=O)NC3(CCCC3)C2=O)c1
  -21%	-13%
> COc1ccc(-c2csc(C(O)c3ccc(F)c(F)c3)n2)cc1 (stereo unspecified)
  -17%	-6%
> COc1ccc(-n2cc(CN(C)C3CCOCC3)c(-c3cccc(F)c3)n2)cc1
  -20%	-19%
> CCOC(=O)c1[nH]cnc1C(=O)Nc1ccccc1C
  -7%	-5%
> COc1ccc(-n2cc(C(=O)O)c(=O)cc2C)cc1
  -14%	-7%
> C/C(=N/O)c1ccccn1
  -5%	6%
> O=C1Nc2ccccc2C(O)(C(=O)NCc2ccco2)N1c1ccc(Cl)c(Cl)c1 (stereo unspecified)
  -7%	/
> Cc1ccc(C(=O)N2CCc3cc(CNS(=O)(=O)c4ccc(Cl)s4)ccc32)cc1
  ?	?
> CSc1ncnc2c1ncn2CCCN1CCN(Cc2c(C)cc(C)cc2C)CC1
  ?	?
> N#CN=C(c1ccccc1)c1ccccc1
  -3%	i
> Cc1ccc(C)c(NC(=O)CN(C)S(=O)(=O)c2ccc3c(c2)CCC(=O)N3)c1
  6%	-4%
> Cc1ccc(-n2c(SCc3ccccc3)nc3c([nH]c4ccccc43)c2=O)cc1
  -16%	-15%
> COc1ccc2c(c1)CCCC21NC(=O)NC1=O (stereo unspecified)
  -2%	/
> CCCc1c(C)c2ccccc2[nH]c1=O
  -15%	-13%
> Cc1ccc(C)c(CN2C(=O)c3ccccc3S(=O)c3ccc(C(=O)N4CCOCC4)cc32)c1 (stereo unspecified)
  -5%	-1%
> COc1ccc(-c2noc(CCC(=O)Nc3cccnc3)n2)cc1OC
  -7%	/
> CCOc1ccc(N(CC(=O)NCc2ccccc2)S(=O)(=O)c2c(C)noc2C)cc1
  -11%	8%
> O=C(CSc1nnc(NC(=O)c2ccccc2)s1)NCc1ccco1
  1%	-15%
> CCCCOc1ccc(CNC(=O)Cc2ccc(NC(=O)N3CCSc4ncccc43)cc2)cc1
  -7%	-11%
> CN(C(=O)c1cccc(NC(=O)C2CCN(C(=O)OC(C)(C)C)CC2)c1)C1CCCCC1
  -22%	-4%
> COCCn1cnc2c1c(=O)n(CC(=O)NCC(F)(F)F)c(=O)n2Cc1ccccc1
  -2%	-3%
> COc1ccc(C(=O)Nn2c(C)ccc2C)cc1OC
  -5%	/
> CC(=O)Oc1ccc(N2C(=O)C3C(C2=O)C(C(=O)c2ccc(Cl)cc2)N2CCCC32)cc1 (stereo unspecified)
  -5%	-23%
> O=C(Cc1cccs1)Nc1cccc(-c2nnc(-c3ccco3)o2)c1
  -8%	-6%
> CCn1c(Cc2ccccc2)nnc1SCC(=O)c1cccc([N+](=O)[O-])c1
  -13%	-16%
> Cc1nn(Cc2ccc(Cl)cc2Cl)c(C)c1NC(=O)NC12CC3CC(CC(C3)C1)C2
  ?	?
> CCOC(=O)Cc1cn(C(=O)OC(C)(C)C)c2ccccc12
  -6%	-26%
> O=C(NCCN1CCC(n2c(=O)[nH]c3ccccc32)CC1)c1cc(F)cc(F)c1
  -10%	-8%
> COC(=O)C(C)(C(=O)OC)c1ccccc1[N+](=O)[O-]
  -12%	i
> CC(C)(C)OC(=O)C[C@H]1C/C=C\C[C@@H](CC(=O)N[C@H](CO)Cc2ccccc2)C(=O)NCCOC1=O
  -11%	-33%
> Cc1c(Cl)c([N+](=O)[O-])nn1CCCC(=O)Nc1sc2c(c1C(N)=O)CCC(C)C2 (stereo unspecified)
  -16%	-14%

Arranged by number of heavy atoms (lowest first): some entries from above.
Results follow in this order: Vaccinia Venus	Vaccinia mCherry
> Cc1ccc(C)c2c(C)ccnc12
  -8%	-11%
> COc1ccc(C(=O)Nn2c(C)ccc2C)cc1OC
  -5%	/
> O=C(Cc1cccs1)Nc1cccc(-c2nnc(-c3ccco3)o2)c1
  -8%	-6%
> CCn1c(Cc2ccccc2)nnc1SCC(=O)c1cccc([N+](=O)[O-])c1
  -13%	-16%
> CCn1c(SCC(=O)Nc2ccc3c(c2)n(C)c(=O)n3C)nnc1-c1ccncc1
  -4%	-7%
> CCOc1ccc(N(CC(=O)NCc2ccccc2)S(=O)(=O)c2c(C)noc2C)cc1
  -11%	8%

Other results follow:
Results follow in this order: Vaccinia Venus	Vaccinia mCherry
> O=C(c1ccco1)N1CCC(c2nc(-c3ccc(F)cc3)no2)CC1
  0%	3%
> COc1ccc2nc(NC(=O)CN3C(=O)NC4(CCCCC4)C3=O)sc2c1
  -25%	?
> COc1cc(N)c(Cl)cc1C(=O)OC(C)C(=O)Nc1cccc(S(=O)(=O)N2CCOCC2)c1 (stereo unspecified)
  -22%	-22%
> O=C1/C(=C/c2cccs2)CCC/C1=C\c1cccs1
  -20%	-3%
> CCC(C)(C)NC(=O)C(c1cccc(OC)c1)N(C(=O)CNC(=O)c1cccs1)c1cccnc1 (stereo unspecified)
  2%	26%
> Nc1ccc(Cc2ccccn2)cc1
  -12%	i
> C/C(=N/NC(=O)CCC(=O)Nc1cccc(Cl)c1)c1ccc(C)cc1
  -9%	-4%
> COc1ccccc1Nc1ncnc2c1nc1n2CCCC1
  -11%	-13%
> COc1cccc(CNC(=O)c2ccc(CS(=O)Cc3ccccc3Cl)o2)c1 (stereo unspecified)
  -15%	i
> CC(O)(c1cccnc1)c1nc(-c2cccc(C#N)c2)cs1 (stereo unspecified)
  -1%	i
> CC1=Nc2ccc(Br)cc2C(c2ccccc2)N1CC(=O)O (stereo unspecified)
  -4%	-8%
> COc1cccc(C2C(C(=O)c3cccs3)=C(O)C(=O)N2CCN2CCOCC2)c1OC (stereo unspecified)
  -8%	i
> CNC(=O)c1cc2cc(OC)ccc2oc1=N
  -16%	-19%
> Cc1nc(Sc2ccccc2)c(C#N)c(C)c1[N+](=O)[O-]
  -16%	?
> COc1ccc(-c2nc3sc(CCNC(=O)Cc4ccc(Cl)cc4)c(C)n3n2)cc1
  -27%	i
> CNC(=O)c1cc2cccc(OC)c2oc1=O
  -6%	/
> Cn1nc(C(=O)N2CCN(S(=O)(=O)c3ccc(Cl)cc3)CC2)c2ccccc2c1=O
  -14%	-7%
> COC(=O)CSc1nnc(-c2ccoc2C)n1-c1ccc(C)cc1
  5%	-7%
> CC(C)(C)c1cc(NC(=O)CSc2nncs2)n(-c2ccccc2)n1
  -8%	-7%
> COC(=O)c1n[nH]n(-c2ccc(F)c(Cl)c2)c1=O
  -11%	-20%
> O=C(COc1ccc(Br)cc1)N1CCN(c2ccc([N+](=O)[O-])c(N3CCCCC3)c2)CC1
  -19%	-21%
> COC(=O)[C@]1(C)N[C@H](CN(C)C(=O)NC(C)C)[C@@H]2C(=O)N(Cc3ccccc3)C(=O)[C@@H]21
  -2%	-5%
> Cc1ccccc1C(=O)N1CCC1(C)C(=O)NC(C)C (stereo unspecified)
  9%	i
> CN(Cc1ccon1)Cc1cn(C)nc1-c1ccc(Oc2ccccc2)cc1
  -6%	6%
> CCOc1ccccc1NC(=O)c1nc(SC(C)C)ncc1Cl
  -2%	-3%
> CCC(CO)NS(=O)(=O)c1cc(-c2nn(C)c(=O)c3ccccc23)ccc1C (stereo unspecified)
  -28%	i
> CCC(=NCC1CCCO1)c1c(O)n(-c2ccccc2)c(=O)[nH]c1=O (stereo unspecified)
  -6%	-9%
> CCOc1ccccc1NC(=O)CN(Cc1ccccc1)S(C)(=O)=O
  -8%	-1%
> Cn1c(N)c(C(=O)CSc2nnc(C3CC3)n2-c2ccccc2)c(=O)n(C)c1=O
  -14%	-9%
> Cc1[nH]c2ccccc2c1/C=N/NC(=O)CNC(=O)c1cccs1
  13%	-14%
> Cc1ccc(NC(=O)CNC(=O)c2cccs2)c(O)c1
  3%	-15%
> CCOc1cccc(OCCOCCOc2ccccc2C(C)=O)c1
  -8%	-16%
> C[C@@H](C(=O)NCC1CC1)[C@@H]1C[C@@]1(C)[C@@H](NC(=O)OCc1ccccc1)c1ccccc1
  -18%	i
> CC(C)(C)c1ccc(C(=O)N2CCC(=O)N([C@H](COCc3ccccc3)Cc3ccccc3)CC2)cc1
  -26%	2%
> Cc1cccc(NC(=O)CSc2nnc(-c3ccco3)c(-c3ccco3)n2)c1C
  3%	-14%
> O=C(O)C1=C[C@@H](c2ccc(C(F)(F)F)cc2)C[C@@H](OCc2ccc(CO)cc2)O1
  -3%	-13%
> Cc1ccc(S(=O)(=O)N(C)C)cc1NC(=O)c1ccc(OC(F)(F)F)cc1
  -12%	-3%
> COc1ccc(-n2c(-c3ccccc3F)nc3ccccc3c2=O)cc1
  -10%	i
> COc1ccc(Cn2ccc3nc(C)c(C(=O)Nc4ccc(C)c(F)c4)cc3c2=O)cc1
  -9%	-16%
> COc1ccc(C(=O)NCCS(=O)(=O)N2CCN(Cc3ccccc3)CC2)cc1
  -2%	-8%
> O=C1NCCN1CCNS(=O)(=O)c1ccccc1[N+](=O)[O-]
  -2%	-2%
> CCCS(=O)(=O)N1CCC(C(=O)NCCOC)CC1
  -11%	-25%
> COc1ccc2cc3cc(C(=O)NCc4ccc5c(c4)OCO5)oc3nc2c1
  -12%	-21%
> O=C(Nc1ccccc1Cl)ON=C1c2ccccc2-c2ccccc21
  -24%	-22%
> CC(=O)N1CCC(C(=O)Nc2cc(C)cc(C)c2)CC1
  -17%	-3%
> CC(=O)c1ccc(S(=O)(=O)N2CCC(NC(=O)Nc3cccc(F)c3)CC2)cc1
  -7%	-13%
> Cc1ccc2oc(-c3ccc(C)c(NC(=O)COc4ccccc4C)c3)nc2c1
  -21%	-8%
> CC(Sc1nc(NCc2ccccc2)nc(N2CCOCC2)n1)C(=O)Nc1ccccc1 (stereo unspecified)
  -11%	-21%
> N#CC1=C(N)Oc2n[nH]c(-c3ccc(F)cc3)c2C1c1ccncc1 (stereo unspecified)
  3%	-7%
> CC1(C)C(C=C(Cl)Cl)C1C(=O)N1CCN(c2ccccc2)CC1 (stereo unspecified)
  -27%	?
> CCCCOc1ccc(/C=N/NC(=O)c2nnn(-c3nonc3N)c2CN2CCCCCC2)cc1
  -3%	i
> C=C(C)c1cccc(C(C)(C)NC(=O)NCc2ccncc2)c1
  -8%	i
> CC(C)(C)C1CCc2c(sc(NC(=O)CSc3nnc(-c4ccccc4)o3)c2C#N)C1 (stereo unspecified)
  -11%	-4%
